Ba CapD inh: blocks the Bacillus anthracis CapD enzyme. purified CapD enzyme, fluorescence intensity read-out; active compounds read low; some hits fall short of the stated cut. z-score (concentration not given with the values). hit rate 0.23% among 140,000;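 active = z-score under -4 in either of two replicates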;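 note: stock transfer was 100 nL into about 40 µL; score is relative to mean and spread of the plate; one replicate is shown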
AID504770: E. coli YBA685 growth inhibition, screen for V. cholerae RctB inhibitors. z-score (concentration not given with the values). E. coli YBA685 rctB-dependent plasmid, OD600 growth, 3 h; active compounds read low. hit rate 0.27% among 130,000;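 active = z-score under -2 on both plates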;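 note: wells of about 30 µL received 100 nL stock; score is relative to mean and SD of the test wells; the first replicate is given; strong numbers were not always called active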
* hit, by the source's call; i = inactive; . = no result given; & = joins results of further samples. A portion of the library. The share of hits here may be higher or lower than overall.

SMILES | Ba CapD inh | AID504770
COc1ccc(-n2cc(C(=O)NCCN(Cc3ccco3)C3CCCC3)c3ccccc3c2=O)cc1 | 3.05 | -0.3
Cc1ccc(S(=O)(=O)N2Cc3ccccc3C(C)CC23CCCCC3)cc1 (centres undefined) | -0.06 | 0.2
CC(=O)N1CCc2cc(N=Cc3ccc(Cl)cc3)ccc21 | 0.12 | -0.9
O=C(Nc1ccc(Oc2ccc(Cl)cc2)c(Cl)c1)c1cc(Br)cc(Br)c1O | 4.48 | .
CC[C@H]1OC(=O)[C@H](C)[C@@H](OC2CC(C)(OC)C(O)C(C)O2)[C@H](C)[C@@H](OC2OC(C)CC(N(C)C)C2O)[C@](C)(O)C[C@@H](C)/C(=N\OCOCCOC)[C@H](C)[C@@H](O)[C@]1(C)O (some centres undefined) | -0.685 | .
COc1ccc(C(=O)N/N=C/c2ccc(F)cc2Cl)cc1OC | -0.69 | .
CCCCN1CCN(c2nc(-c3ccccc3)c3cc(C)ccc3n2)CC1 | 1.89 | -0.95
O=C1CC(=O)CC(c2ccccc2)C1 | -0.165 | 1.75
COc1ccc(Br)cc1C1Nc2ccc3ncccc3c2C2=C1C(=O)CC(C)(C)C2 (centres undefined) | 3.6 | .
Cc1ccc2c(c1)C1C3CCC(C3)C1S(=O)N2 (centres undefined) | . | 0.35
CCN(CC)S(=O)(=O)c1cc(Br)cnc1N | 3.77 | -0.8
CCN1C(=O)NC(=O)/C(=C\c2cn(CC(=O)N3CCCCC3C)c3ccccc23)C1=O (centres undefined) | -0.375 | 0.4
CCCS(=O)(=O)n1nc(-c2ccc(OC)cc2OC)cc1N | -0.245 | 2.1
Nc1[nH]c(=S)ncc1S(=O)(=O)c1ccccc1 | 0.01 | -0.05&-1.15
COC(=O)c1oc2ccccc2c1COc1ccccc1 | . | 2.45
NC(=O)c1ccccc1NC(=O)COc1ccc2c(c1)OCO2 | . | -0.75
O=C1N=C(N2CCOCC2)SC1=C1CCCC1 | -0.24 | -0.35
COc1cc(/C=C2N=C(/C=C/c3ccc(Cl)cc3Cl)OC\2=O)cc(OC)c1OC | -0.07 | .
COc1ccc(NC(=O)C2C(=O)NC3(C)CC2c2ccccc2O3)cc1 (centres undefined) | -0.46 | 1.3
O=C(NCCc1ccc(Cl)cc1)c1cccnc1Oc1ccccc1 | -0.33 | -0.6
O=C(OCCC1CCCC1)N1CCC(C(O)(c2ccccc2)c2ccccc2)CC1 | 0.265 | .
Cc1ccc2nc(NC(=O)CSc3nccn3-c3ccccc3)sc2c1 | -0.665 | 2.85
CCSc1nc2c(cc1C#N)C(=O)CCC2 | -1.15 | -1.2
CC1CCN(c2nncc3ccccc23)CC1 | -0.255 | 0.6
CCOC(=O)c1cccc(NC(=O)c2ccc(-c3ccccc3)s2)c1 | -0.03 | 0.1
The list continues.
SMILES | Ba CapD inh | AID504770
Clc1ccc(SCc2cc(N3CCCC3)nc(-c3ccccc3)n2)cc1 | -0.54 | .
CC(NC(=O)c1ccc(C23CC4CC(CC(C4)C2)C3)cc1)C(=O)O (centres undefined) | 2.1 | -0.35
C=CCSc1nnc(-c2ccncc2)n1-c1ccccc1 | -0.47 | .
COc1ccccc1CCOC(=O)N1CCN(c2ccc(C(F)(F)F)cn2)CC1 | 2.17 | .
O=c1oc2ccccc2cc1-c1nc(-c2ccncc2)n[nH]1 | -1.38 | 1.85
Nc1nc(-c2ccc(OC(F)F)cc2)cs1 | . | -1.2
Cc1ccc(/C=C/C(=O)N[C@@H](Cc2ccccc2)c2nc3ccccc3[nH]2)o1 | . | -0.05
COc1ccc(C)cc1NC(=O)C(OC(=O)C1=NNC(=O)CC1)c1ccccc1 (centres undefined) | . | 0.6
CC(C)(C)NS(=O)(=O)c1ccc2c(c1)C(=NO)c1cc(S(=O)(=O)NC(C)(C)C)ccc1-2 | 6.58 | .
NS(=O)(=O)c1ccc(-n2cccc2C=C2C(=O)NC(=S)NC2=O)cc1 | -0.465 | -0.5
CC12c3ccccc3C(C)(c3ccccc31)C1C(=O)N(c3ccc(C(=O)O)cc3)C(=O)C12 (centres undefined) | -0.305 | .
Cc1cc(/C(N)=N/OC(=O)c2snnc2C)no1 | -0.145 | 1.45
Cc1cc(C)cc(C(N)=Nc2cccc(C#N)c2)c1 | -0.13 | -0.95
Cc1nc2cc(-c3ccccc3)nn2c(C)c1CCC(=O)NCCCN1CCCC1=O | 11.4 | -1.9
Cc1ccnn1Cc1cc(C(=O)O)c2ccccc2n1 | . | -0.6
N#Cc1nc(-c2ccc(Cl)cc2)oc1NCCc1ccccc1 | -0.71 | 1.8
COc1ccccc1NC(=S)N(CCO)Cc1cc2cc3c(cc2[nH]c1=O)OCCO3 | . | 2.15
CC(C)Cn1c(N(C)C)nc2c1c(=O)[nH]c(=O)n2C | 1.11 | 0.05
Cc1noc(C)c1NC(=O)NCc1ccc2c(c1)OCO2 | 0.45 | 0.45
Cc1ccc(CNC(=O)CCS(=O)(=O)c2ccc3c(c2)oc(=O)n3C)cc1 | -0.735 | -0.2
COC(=O)c1ccc2nc(NC(=O)C(C)C)sc2c1 | 0.665 | 0.45
Cc1c(C)c(C)c(CN2CCCCC2)c(C)c1C | 0.655 | 0
COc1ccc(-c2c(C)c3ccccc3oc2=O)cc1 | 44.1 | 1.45
CCOC(=O)c1[nH]c2c(c1-c1ccc(OC)cc1)C(=O)CC(c1ccc(OC)c(OC)c1)C2 (centres undefined) | 1.17 | -1.35
Cc1cc(=O)cc(C)n1-c1ccc(C(=O)O)cc1 | -0.695 | 1
Further results:
SMILES | Ba CapD inh | AID504770
CCOc1ccc(C(=O)N/N=C/c2c(C)[nH]c(=O)[nH]c2=O)cc1 | 0.275 | 0.95
O=C(O)Cc1c(C(=O)O)[nH]c2ccc(C(=O)O)cc12 | . | 0.75
O=C(NCCN1CCOCC1)c1cc(=O)oc2cc(OCc3ccccc3)ccc12 | 6.44 | .
COc1cc(-c2nc3ccccc3c(=O)n2NC(=O)c2ccccc2Cl)cc(OC)c1OC | -0.2 | .
N#CCC(c1ccccc1)c1ccccc1 | 4.26 | -1
CN1c2ccccc2Oc2nnc(N3CCN(c4ccccc4)CC3)cc21 | 0.2 | 0.35
COc1cccc(NC(=O)c2ccc(-n3cnc4cccnc43)cc2)c1 | 4.04 | 1.15
CCCCCn1c(SCC(=O)N2CCCC2)nc2cc(C(=O)N3CCC(C(N)=O)CC3)ccc2c1=O | 0.58 | .
NCc1ccc(CO)cc1 | . | 0.35
CSc1nnc(C)c(=O)n1COC(=O)C1CC(=O)N(c2ccc(C)cc2)C1 (centres undefined) | . | 1.6
O=C(N/N=C/c1cn[nH]c1-c1ccccc1)c1ccc(C(F)(F)F)cc1 | -0.98 | .
CCCN1C(=O)C2(c3ccccc31)c1c(oc3ccccc3c1=O)C(=O)N2CCOC (centres undefined) | 5.52 | 0.05
CC(C)(C)c1csc(SCC(=O)Nc2nccs2)n1 | . | -0.55
O=C(CSc1ccc2nnc(-c3ccc(F)cc3)n2n1)OCc1ccccc1 | 0.965 | 0.35
O=C(NCCNc1ccc(C(F)(F)F)cc1[N+](=O)[O-])c1cccs1 | 0.12 | .
CCOc1cccc2cc(C(=O)N3CCN(C/C=C/c4ccccc4)CC3)c(=O)oc12 | -0.275 | 0.25
CCC(Sc1nc2ccncc2[nH]1)C(=O)N(CC)CC (centres undefined) | 3.96 | 0.4
COc1ccc(C2C=C(Nc3ccccc3)C(=O)N2c2ccccc2)cc1OC (centres undefined) | 0.6 | .
N#Cc1c(N2CCCC(C(=O)O)C2)nc(N)c2c(N)nc3c(c12)CC(=O)N3C1CCCC1 (centres undefined) | . | 0.2
CNC(=S)N/N=C(\C)c1ccc(-n2ccnc2)cc1 | . | 0.6
S=P(Nn1cnnc1)(c1ccccc1)c1ccccc1 | . | -0.3
COc1ccc2[nH]cc(CCNS(=O)(=O)c3cccc(Cl)c3Cl)c2c1 | -0.2 | .
Cn1c(=O)c2c(nc(N3CCN(Cc4ccc5c(c4)OCO5)CC3)n2CC(=O)c2ccc(Br)cc2)n(C)c1=O | -0.535 | .
C[N+](C)(C)CCOC(N)=O | 0.54&-2.26 | 0.1
COc1ccc2oc(=O)c(C(=O)NC3=C(C#N)CCC3)cc2c1 | 0.3 | 0.15
Further records.
SMILES | Ba CapD inh | AID504770
COc1ccc(CN(C)CC(O)COc2ccc(C#N)cc2)cc1 (centres undefined) | . | -0.1
O=C1c2ccccc2C(Nc2ccc(S(=O)(=O)N3CCOCC3)cc2)N1Cc1ccccc1Cl (centres undefined) | 0.3 | 1.05
COc1ccc(CNc2nc(SCC#N)nc3ccccc23)cc1 | -0.33 | .
CCOc1ccc(-c2nc(-c3cccs3)c(CC(=O)O)s2)cc1OC | . | -0.9
CN(C)Cc1c(O)ccc2c(=O)c(-c3ccccc3)c(C(F)(F)F)oc12 | -1.14 | -1.8
COc1ccccc1C(=O)Nc1ncnc2sc3c(c12)CCCC3 | i | 1.75
Cn1c(=O)c(C(=O)Nc2cccc(O)c2)c(O)c2ccccc21 | 0.605 | 0.45
CC(C)OC(=O)c1nnn(-c2nonc2N)c1CSc1nc2ccccc2o1 | 0.53 | .
CN(C)c1ccc(C(=O)N2CCCC2)cc1 | -0.555 | -0.05
CC(Oc1ccccc1F)c1nnc(SCc2ccc(C#N)cc2)o1 (centres undefined) | . | -0.55
c1ccc(Oc2cccc(CSc3nnc(-c4ccc5c(c4)OCO5)o3)c2)cc1 | . | 1.35
C/C(=N\OCC(=O)Nc1ccccc1OC(F)F)c1cc2ccccc2o1 | . | 0.1
Cc1cc(Br)ccc1NC(=O)CS(=O)(=O)c1cccc2nsnc12 | 0.28 | -0.45
CCOC(=O)C(C#N)C(Cc1ccccc1)c1ccco1 (centres undefined) | -0.175 | -1.1
CCOC(=O)N1CCC(NC(=O)C(NC(=O)C2CCC(C)CC2)C(C)C)CC1 (centres undefined) | 0.65 | -0.6
Cc1oc2ncn(C)c(=O)c2c1C(=O)Nc1ccccc1 | -0.165 | 0.25
O=C1/C(=C/c2ccc(-c3ccc(Br)cc3)o2)C=C(c2ccccc2)N1c1ccc(Sc2ccc([N+](=O)[O-])cc2)cc1 | -0.27 | .
CC(NC(=O)Nc1ccccc1)C(c1ccccc1)N1CCN(C)CC1 (centres undefined) | . | 2.25
CCN(CC)S(=O)(=O)c1ccc(Cl)c(OC)c1 | . | 1.55
C=CCSc1n[nH]c(=O)n1-c1ccc2c(c1)OCCO2 | 0.495 | -0.4
COc1ccc(C(CC(=O)N2CCN(c3ccccc3F)CC2)N2Cc3ccccc3C2=O)cc1OC (centres undefined) | -0.24 | 0.45
Cc1ccc2oc(-c3cccc(NC(=O)CC(C)C)c3)nc2c1 | 22.3 | -0.6
C=C(C)C(=O)OCCc1ccc(O)c(-n2nc3ccccc3n2)c1 | -0.02 | -0.05
CC(C)CSc1nc2ccccc2c(=O)[nH]1 | . | -0.45
Cn1cnnc1SCC(=O)NC1CCCCCC1 | -0.36 | -0.25
(further entries)
SMILES | Ba CapD inh | AID504770
CCC1CCCCN1C(=O)c1cc2cc3cc(OC)ccc3nc2s1 (centres undefined) | 0.805 | 1.9
C=C(C)NC(=S)Nc1nccs1 | . | -0.15
CCCCCC1NC(=O)NC1CCCCCC(=O)O (centres undefined) | 0.495 | 0.65
CN(C)S(=O)(=O)C1CCS(=O)(=O)C1 (centres undefined) | 0.285 | 1.15
Cc1nc2nc(NC(=O)C(C)N3C(=O)c4ccccc4C3=O)[nH]n2c(=O)c1C (centres undefined) | -0.135 | 0.65
O=C(c1ccco1)N1CCN(c2cnn(-c3ccccc3)c(=O)c2Cl)CC1 | -1.45 | -1.1
C(=C\c1ccccc1)/CN1CCN(Cc2c[nH]c3ccccc23)CC1 | -0.475 | -0.35
COc1cc(C2/C(=C(/O)c3ccc(F)cc3)C(=O)C(=O)N2c2nncs2)ccc1O (centres undefined) | -0.38 | .
CN(CC(=O)N1CCCCCC1)S(=O)(=O)c1ccc2[nH]c3c(c2c1)CCCC3 | 0.66 | -0.9
CCNC(=O)C1CCN(c2cnccn2)CC1 | 4.22 | 0.6
CC(=O)N1c2ccccc2N=C(c2ccc(Br)cc2)CC1c1ccccc1 (centres undefined) | -0.215 | .
CCC1SC(=Nc2ccccc2)N(S(=O)(=O)c2ccc(C)cc2)C1=O (centres undefined) | -0.65 | .
COc1ccccc1OCc1nc2ccccc2n1CC(C)C | -0.685 | 0.95
NC(=O)COC(=O)C1CSC2(c3ccc(F)cc3)CCC(=O)N12 (centres undefined) | . | 0.3

15 successive records from above, for reference:
SMILES | Ba CapD inh | AID504770
Cc1ccc2oc(-c3cccc(NC(=O)CC(C)C)c3)nc2c1 | 22.3 | -0.6
C=C(C)C(=O)OCCc1ccc(O)c(-n2nc3ccccc3n2)c1 | -0.02 | -0.05
CC(C)CSc1nc2ccccc2c(=O)[nH]1 | . | -0.45
Cn1cnnc1SCC(=O)NC1CCCCCC1 | -0.36 | -0.25
CCC1CCCCN1C(=O)c1cc2cc3cc(OC)ccc3nc2s1 (centres undefined) | 0.805 | 1.9
C=C(C)NC(=S)Nc1nccs1 | . | -0.15
CCCCCC1NC(=O)NC1CCCCCC(=O)O (centres undefined) | 0.495 | 0.65
CN(C)S(=O)(=O)C1CCS(=O)(=O)C1 (centres undefined) | 0.285 | 1.15
Cc1nc2nc(NC(=O)C(C)N3C(=O)c4ccccc4C3=O)[nH]n2c(=O)c1C (centres undefined) | -0.135 | 0.65
O=C(c1ccco1)N1CCN(c2cnn(-c3ccccc3)c(=O)c2Cl)CC1 | -1.45 | -1.1
C(=C\c1ccccc1)/CN1CCN(Cc2c[nH]c3ccccc23)CC1 | -0.475 | -0.35
COc1cc(C2/C(=C(/O)c3ccc(F)cc3)C(=O)C(=O)N2c2nncs2)ccc1O (centres undefined) | -0.38 | .
CN(CC(=O)N1CCCCCC1)S(=O)(=O)c1ccc2[nH]c3c(c2c1)CCCC3 | 0.66 | -0.9
CCNC(=O)C1CCN(c2cnccn2)CC1 | 4.22 | 0.6
CC(=O)N1c2ccccc2N=C(c2ccc(Br)cc2)CC1c1ccccc1 (centres undefined) | -0.215 | .

Compound activity deposited in PubChem BioAssay by ICCB-Longwood Screening Facility, Harvard Medical School.
